Bioassay records: PubChem BioAssay, several laboratories
Mtb hypoxia rep: PubChem AID 1159583; M. tuberculosis hypoxia-regulated fluorescent reporter, fluorescence; fluorescence inhibition, % (no concentration beside the values); 300,000 compounds, 0.1% hits;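 active = 35 to 45% if threefold the growth effect, above 45% if 1.5-fold the growth effect; inactive = the rest, general growth blockers included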;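 also: wells of about 50 µL received 100 nL stock; 0% = vehicle wells and 100% = reference inhibitor wells; whole bacteria with a GFP reporter of the hypoxia response; strong numbers were not always called active; many hits fall short of the cut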
BJeLR viability: MLPCN primary cell-based screen for lethality selective to Ras in HRASV12 cells; BJeLR (HRASV12) viability, CellTiter-Glo ATP luminescence, 48 h; reference of the scale not given here; inhibition, % (no concentration beside the values); 300,000 compounds, 0.17% hits; AID 1554, 2009;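 active = replicate mean above 50%; inconclusive = above 50% but judged a plate artefact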;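 also: 50 nL library stock added to about 25 µL; numbers are from one replicate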
Sa ugtP lethal: growth inhibition of ugtP-null S. aureus, primary screen, RN4220 ugtP deletion, OD600. 16 h; some inactives read as strong as hits. growth inhibition, % (test concentration not listed). 330,000 compounds, 0.54% hits. AID 1259309, 2017;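 active = z-score under -3 and OD600 up to 0.15 on both plates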;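 also: plate controls were untreated wells for no effect and antibiotic for full effect; wells of about 80 µL received 100 nL stock; the first replicate is given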
Autofluor counter: flagged as autofluorescent in microsphere protease counterscreen; compound autofluorescence counterscreen, microsphere flow cytometry; active compounds read high; fluorescence intensity (concentration not given with the values); 360,000 compounds, 3.1% hits;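 active = at least 3 SD above the mean of all compounds, about 16000 in these data; inconclusive = too few beads counted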;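 also: 100 nL of 1 mM stock went into each well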
RN4220 kill: growth inhibition of S. aureus RN4220, primary screen, OD600; inhibition, % (no concentration beside the values); 16 h; 330,000 compounds, 0.33% hits; AID 1259311, 2017;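 active = z-score of -3 or lower and OD600 up to 0.18 on both plates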;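 also: plate controls were untreated cells for no effect and reference antibiotic for full effect; stock transfer was 100 nL into about 80 µL; one replicate is shown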
PrP UTR inh: inhibition of PrP 5' UTR reporter expression; cell-based PrP 5' UTR mRNA reporter, plate reader; inhibition, % (no concentration beside the values); 340,000 compounds, 0.35% hits; AID 488862, 2010;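 active = every replicate at 50% or more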;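 also: 0 = median of the neutral control wells; tested in H4 reporter cells; numbers are from one replicate; inactives centre near -14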
Mtb hypoxia rep growth: recorded beside Mtb hypoxia rep, whose call it bears; growth inhibition, %; measured here: M. tuberculosis growth (absorbance);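 0% = vehicle and 100% = reference antibiotic; read after six days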
* hit, by the source's call; u = inconclusive; x = not tested or not shown; & = joins results of further samples.

(1) COC(=O)CNC(=O)Cn1ccc2ccccc2c1=O
(2) Cn1cccc1Cc1nnc(SCC(=O)Nc2nccs2)n1CCc1ccccc1
(3) N/C(=N\NC(=O)c1ccc(F)cc1)c1cc2ccccc2oc1=O
(4) COc1cc(NC(=O)CSCC(=O)Nc2cccc(C(F)(F)F)c2)c(Cl)cc1Cl
(5) Cn1cc2cc([N+](=O)[O-])ccc2n1
(6) Cc1cc(NC(=O)c2ccc(F)cc2)ccc1NC(=O)c1ccco1

Compound	1	2	3	4	5	6
Mtb hypoxia rep	x	x	12	8	4	13
Mtb hypoxia rep growth	x	x	4	6	4	1
BJeLR viability	-3	-6	0	4	-21	-2
Sa ugtP lethal	1	-6	3	-10	19	7
Autofluor counter	2434	5881	3586	6249	3190	4289
RN4220 kill	1.3	7.4	7.7	1.6	7.3	-0.4
PrP UTR inh	-18	-13	-14	-3	-10	-28

(7) Cn1c(CNS(=O)(=O)c2ccc(Cl)cc2)n[nH]c1=S
(8) CN1CCN(C(=O)C2=CC(c3ccc4c(c3)OCO4)CC(OCc3ccc(CO)cc3)O2)CC1 (stereo unspecified)
(9) COC(=O)C1(Cc2cc(-c3ccc(Cl)cc3)no2)CCN(C(=O)OC(C)(C)C)CC1
(10) O=C(O)c1cccc2c1C(=O)N(c1ccc3c(c1)Cc1ccccc1-3)C2=O
(11) CCN1CC2([N+](=O)[O-])C=CC(=O)C([N+](=O)[O-])(C1)C2CC(=O)c1ccccc1 (stereo unspecified)
(12) COc1ccc(CCNC(=O)C2CCCN(Cc3nc(-c4ccccc4C)oc3C)C2)cc1OC (stereo unspecified)

Compound	7	8	9	10	11	12
Mtb hypoxia rep	-5	-6&6	-1	14	7	-1
Mtb hypoxia rep growth	7	5&6	1	9	13	15
BJeLR viability	3	x	11	x	-6	5
Sa ugtP lethal	-3	-6&-1	17	-3	-4	-6
Autofluor counter	3720	x	3408	4254	3698	21174*
RN4220 kill	-5.6	-2.6&6.0	17	1.0	5.7	4.4
PrP UTR inh	-68	x	-11	-13	3	-48

(13) NC(=NN=Cc1cccc(O)c1)c1nonc1N
(14) CCOC(=O)/C=c1\s/c(=C(\C#N)C(=O)NC)n(-c2ccccc2)c1=O
(15) CC(=O)c1ccc(-c2cc(C3C4C=CCC(C)C4C(=O)N3Cc3ccccc3)ccc2F)cc1 (stereo unspecified)
(16) O=C(Cn1nnc(-c2ccccc2NC(=O)c2ccccc2F)n1)NC1CCCC1
(17) Cc1ccc(NCC(=O)Nc2ccc(Br)cc2)cc1F
(18) O=C(NCCN1CCCCC1)Nc1ccc(F)c(Cl)c1

Compound	13	14	15	16	17	18
Mtb hypoxia rep	1	x	2	4	8	8
Mtb hypoxia rep growth	-8	x	4	10	-1	3
BJeLR viability	x	3	x	1	3	-2
Sa ugtP lethal	-6	x	-5	4	-27	5
Autofluor counter	x	3483	x	2690	2663	8018
RN4220 kill	6.4	x	-4.5	2.8	3.1	-0.9
PrP UTR inh	x	17	x	-23	-35	-27

Retrieved by structure from the entries so far:
(17) Cc1ccc(NCC(=O)Nc2ccc(Br)cc2)cc1F
(18) O=C(NCCN1CCCCC1)Nc1ccc(F)c(Cl)c1

Compound	17	18
Mtb hypoxia rep	8	8
Mtb hypoxia rep growth	-1	3
BJeLR viability	3	-2
Sa ugtP lethal	-27	5
Autofluor counter	2663	8018
RN4220 kill	3.1	-0.9
PrP UTR inh	-35	-27

Going on with the list:
(19) O=C(CN1CCCCC1)NCCNc1ccc(C(F)(F)F)cc1[N+](=O)[O-]
(20) O=C1c2ccccc2C(=O)N1CCCc1cn(C[C@H]2CC[C@H](Cn3cc(CCCN4C(=O)c5ccccc5C4=O)nn3)O2)nn1
(21) CCOC(=O)c1cc(C(C)(C)C)oc1CN
(22) C/C=C(\C)C(=O)NCCN1C2=NC[C@H](Cc3ccc(O)cc3)N2C[C@H]1Cc1ccc(O)cc1
(23) O=C1c2cc(Cl)ccc2-c2c(O)cc(Cl)cc21
(24) Cc1ccc(NC(=O)NC2CC(=O)N(c3ccc4c(c3)OCCO4)C2)cc1C (stereo unspecified)

Compound	19	20	21	22	23	24
Mtb hypoxia rep	10	2	11	x	9	-4
Mtb hypoxia rep growth	11	6	11	x	-1	4
BJeLR viability	-9	x	-5	2	x	8
Sa ugtP lethal	5	11	1	x	100*	-33
Autofluor counter	2165	3007	2933	3781	4258	u
RN4220 kill	3.6	7.0	2.1	x	100*	-5.7
PrP UTR inh	-14	4	-14	5	-35	11

(25) CCC(C)(NC(=O)c1ccccc1)C(=O)O (stereo unspecified)
(26) CN1CCS/C1=C\C=C1/SC(=S)N(CC(=O)O)C1=O
(27) COc1ccc(OC)c(CN2CCN(C(=O)c3cc4ccccc4cc3O)CC2)c1
(28) Oc1ccc(/C=N/n2c(COc3ccccc3)n[nH]c2=S)cc1O
(29) COCC1CCN(C(=O)c2cc(COc3cccc4cnccc34)on2)CC1
(30) CC(C)CCNc1nc(N)c([N+](=O)[O-])c(N2CCCCCC2)n1

Compound	25	26	27	28	29	30
Mtb hypoxia rep	2	47*	-6	x	5	6
Mtb hypoxia rep growth	-2	8.0*	7	x	-2	5
BJeLR viability	0	2	3	2	1	11
Sa ugtP lethal	2	10	3	x	5	-2
Autofluor counter	10157	3535	6073	3541	5879	3957
RN4220 kill	2.9	6.7	-2.8	x	1.0	28
PrP UTR inh	-1	-12	-8	-47	-12	-28

(31) CCOC(=O)N1CCN(C(=O)CNC(=O)c2ccccc2F)CC1
(32) CSc1nc(N)nc2c1ncn2CC(=O)NCC(c1ccccc1)c1ccccc1
(33) CCCCS(=O)(=O)N1CCCC(C(=O)Oc2ccc(Cl)cc2)C1 (stereo unspecified)
(34) COc1cccc(NC(=O)CN2CCN(c3ccc(F)cc3)CC2)c1
(35) COc1ccc(C2CC(=O)C=C(NNS(=O)(=O)c3ccc(C)cc3)C2)cc1 (stereo unspecified)
(36) O=C(O)CCC(=O)N1N=C(c2c(-c3ccccc3)c3cc(Cl)ccc3[nH]c2=O)CC1c1ccccc1 (stereo unspecified)

Compound	31	32	33	34	35	36
Mtb hypoxia rep	12	-1	0	x	4	-5
Mtb hypoxia rep growth	7	-3	7	x	0	4
BJeLR viability	x	x	0	6	-13	0
Sa ugtP lethal	0	20	9	5	9	-6
Autofluor counter	3768	3569	3154	2602	2033	2313
RN4220 kill	1.5	-1.7	0.6	1.6	6.5	1.4
PrP UTR inh	-20	2	17	-9	-15	-3

(37) CCCn1c(SCC(=O)N2CCc3ccccc3C2)nc2c1c(=O)n(C)c(=O)n2C
(38) COc1ccc(C(c2nnnn2C2CCCC2)N2CCC(C(N)=O)CC2)c(OC)c1 (stereo unspecified)
(39) COc1cc(C)ccc1OCCOc1c(Cl)cc(Cl)cc1Cl
(40) CCC(C)NC(=O)[C@H]1N2C(=O)c3c(ccc(OC)c3OC)C2SC1(C)C (stereo partly specified)
(41) COc1ccc(NC(=O)c2ccccc2OCc2c(C)noc2C)cc1OC
(42) CN(CC(=O)NC(=O)NCc1ccccc1)Cc1ccc(Cl)cc1

Compound	37	38	39	40	41	42
Mtb hypoxia rep	1	x	x	-2	8	x
Mtb hypoxia rep growth	5	x	x	6	-4	x
BJeLR viability	-4	9	-6	3	3	8
Sa ugtP lethal	2	-5	5	4	1	x
Autofluor counter	23593*	4703	2958	3952	6101	2906
RN4220 kill	7.6	-2.5	17	1.9	2.0	x
PrP UTR inh	-47	-17	-21	-6	-8	-9

(43) COc1ccc(NC(=O)c2cc(-c3cccs3)on2)cc1
(44) OCc1csc(=Nc2ccccc2)n1-c1ccccc1
(45) Nc1c(NCCN2CCCCC2)c2ccccc2oc1=O
(46) COc1ccc(CCNc2ncnc3c2nnn3Cc2ccccc2)cc1OC
(47) COc1ccccc1C(=O)NCCC(=O)NCCOc1ccccc1
(48) Cc1[nH]c2ccccc2c1C(O)c1ccncc1 (stereo unspecified)

Compound	43	44	45	46	47	48
Mtb hypoxia rep	-2	x	-3	0	4	4
Mtb hypoxia rep growth	-2	x	18	9	11	-4
BJeLR viability	-6	11	2	4	2	-3
Sa ugtP lethal	-4	4	2	7	2	3
Autofluor counter	3368	4687	4890	x	6193	4901
RN4220 kill	-5.6	-0.3	2.0	0.0	1.9	2.8
PrP UTR inh	-32	-11	-5	-38	-11	-24

(49) CCOC(=O)c1sc(NC(=O)CN2CCN(c3ccc(OC)cc3)CC2)nc1C
(50) O=C(O)c1ccc(NS(=O)(=O)c2cc(Cl)ccc2Cl)cc1O
(51) Cc1ccccc1N1C(=O)C2C3C=CC(CC3)C2C1=O (stereo unspecified)
(52) O=C(CCC(=O)Nc1ccc(F)cc1)N/N=C/c1cc([N+](=O)[O-])ccc1O
(53) COc1cc(SC)ccc1C(=O)Nc1c(Cl)cncc1Cl
(54) Cn1nnnc1SCC(=O)N1CCN(c2ccccc2)CC1

Compound	49	50	51	52	53	54
Mtb hypoxia rep	9	7	6	x	6	8
Mtb hypoxia rep growth	1	8	14	x	0	2
BJeLR viability	5	3	5	2	-10	-1
Sa ugtP lethal	17	0	8	x	2	5
Autofluor counter	4048	3290	3689	2620	3455	2432
RN4220 kill	2.7	-8.1	3.2	x	12	9.1
PrP UTR inh	-7	-26	-13	-21	-16	-7

(55) Cc1cc(Br)c2c(c1)C1(OCCO1)C(=O)N2
(56) O=[N+]([O-])c1ccccc1S(=O)(=O)N1CCCCC1
(57) Cc1ccc(SCC(=O)Nc2cccc(C(=O)NC(C)(C)C)c2)cc1
(58) COc1ccc(CNC(=O)CCSc2nc(-c3ccc4c(c3)OCO4)cc(C(F)(F)F)n2)cc1
(59) Cc1c(C(=O)N2C[C@@H](C)O[C@@H](C)C2)oc2c(F)cccc12
(60) O=C(C1c2ccccc2C(=O)N2CCc3ccccc3C12)N1CCC2(CC1)OCCO2 (stereo unspecified)

Compound	55	56	57	58	59	60
Mtb hypoxia rep	x	7	x	x	2	7
Mtb hypoxia rep growth	x	3	x	x	11	2
BJeLR viability	-15	-9	-8	4	-6	-2
Sa ugtP lethal	x	6	5	11	-4	1
Autofluor counter	3832	7200	2364	4216	5401	10446
RN4220 kill	x	8.7	5.3	-15	-0.5	4.7
PrP UTR inh	-15	-26	-12	-15	-28	-13

(61) Cc1cccc(Cc2nnc(CCC(=O)NCc3cnc4ccccn34)o2)c1
(62) CC(=O)Nc1ccccc1C(=O)C(=O)Nc1cccc(F)c1
(63) O=C(NCCSCc1ccccc1)c1ccc(C2SCC(=O)N2Cc2ccccc2)cc1 (stereo unspecified)
(64) COCc1cc(C)nc(SCC(=O)Nc2ccc3c(c2)OCCO3)c1C#N
(65) O=C(NCCN1CCOCC1)c1cc2sccc2n1Cc1ccc(Cl)cc1
(66) CCCSC1C(C)=C(C)C(=O)N1Cc1ccccc1 (stereo unspecified)

Compound	61	62	63	64	65	66
Mtb hypoxia rep	-10	x	7	-1	1	1
Mtb hypoxia rep growth	-9	x	11	7	-1	6
BJeLR viability	-4	-3	0	5	2	3
Sa ugtP lethal	8	1	-10	1	13	8
Autofluor counter	2584	4283	10297	5830	16131*	3427
RN4220 kill	2.7	-3.9	-3.5	2.3	7.8	4.0
PrP UTR inh	-11	-6	-25	-14	-20	-17

One compound at a time, as listed above:
Shown for `Cc1cccc(Cc2nnc(CCC(=O)NCc3cnc4ccccn34)o2)c1` → Mtb hypoxia rep: -10; Mtb hypoxia rep growth: -9; BJeLR viability: -4; Sa ugtP lethal: 8; Autofluor counter: 2584; RN4220 kill: 2.7; PrP UTR inh: -11
Shown for `O=C(NCCSCc1ccccc1)c1ccc(C2SCC(=O)N2Cc2ccccc2)cc1` (stereo unspecified) → Mtb hypoxia rep: 7; Mtb hypoxia rep growth: 11; BJeLR viability: 0; Sa ugtP lethal: -10; Autofluor counter: 10297; RN4220 kill: -3.5; PrP UTR inh: -25
